# Compound activity (PubChem)
# TRPML1 ag = human mucolipin-1 channel agonism. TRPML1-expressing cells, Ca2+ dye fluorescence, FDSS; host cell line not named in the record; reference of the full effect not given here. activation, % (test concentration not listed). hit rate 0.12% among 410,000; in the data active = activation above about 50%; inconclusive = about 30% to 50%; inactive = below about 30%; also: 0% is about no effect; the text of the record puts the active cut at 80%
#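 Cells: TRPML1-DL, 1X Tet inducer, ~16 h at 37 degrees C/5% CO2. Dye: ABD Ca8 no-wash + quencher, 45-90 min RT. Read: 10 s baseline, compound add, 110 s agonist phase; 54-4 EC80 (4uM final), 110 s antagonist phase.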
# CtBP-E1A blk = CtBP/E1A binding inhibition. AID 651724. activity change, % (test concentration not listed). AlphaScreen GST-E1A/His-CtBP binding, 1536-well; active compounds read low; control for the full effect not named in the record. hit rate 0.49% among 340,000; in the data active means activity change below about -65%; inconclusive means about -30% to -65%; inactive means above about -30%; also: % is scaled to controls: 0 for no effect and ±100 for the full control effect
#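 In 5 uL wells, 23 nL compound meets equimolar GST-E1A and His-CtBP (5X stock 125 nM each) for 2 h, 37 °C. Beads (5X, 50 ug/mL) then 1 h, 37 °C, dark.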
# Six1-Eya2 blk = blocks human Six1 binding to Eya2; hit rate 0.56% among 360,000; AlphaScreen GST-Six1/His-Eya2 binding, biochemical; active compounds read low; control for the full effect not named in the record; activity change, % (test concentration not listed); in the data active = activity change below about -65%; inconclusive = about -30% to -65%; inactive = above about -30%; also: % is scaled to controls: 0 for no effect and ±100 for the full control effect
# Target sequence (O00167 whole entry, looked up): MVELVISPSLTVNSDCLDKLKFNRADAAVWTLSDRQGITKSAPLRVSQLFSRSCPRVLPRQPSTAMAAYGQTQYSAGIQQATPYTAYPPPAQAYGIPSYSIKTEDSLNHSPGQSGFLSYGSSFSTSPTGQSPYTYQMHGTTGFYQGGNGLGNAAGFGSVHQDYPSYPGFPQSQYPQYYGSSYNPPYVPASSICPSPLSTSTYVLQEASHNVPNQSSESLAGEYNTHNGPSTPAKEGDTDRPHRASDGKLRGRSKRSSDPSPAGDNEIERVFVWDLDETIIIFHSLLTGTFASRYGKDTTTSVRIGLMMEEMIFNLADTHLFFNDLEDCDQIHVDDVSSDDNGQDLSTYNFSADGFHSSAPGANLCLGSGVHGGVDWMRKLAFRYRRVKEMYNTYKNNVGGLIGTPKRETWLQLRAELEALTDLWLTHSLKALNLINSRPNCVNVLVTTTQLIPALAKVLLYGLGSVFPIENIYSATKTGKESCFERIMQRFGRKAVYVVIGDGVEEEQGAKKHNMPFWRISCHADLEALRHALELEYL
# Target sequence (Q15475 whole entry, looked up): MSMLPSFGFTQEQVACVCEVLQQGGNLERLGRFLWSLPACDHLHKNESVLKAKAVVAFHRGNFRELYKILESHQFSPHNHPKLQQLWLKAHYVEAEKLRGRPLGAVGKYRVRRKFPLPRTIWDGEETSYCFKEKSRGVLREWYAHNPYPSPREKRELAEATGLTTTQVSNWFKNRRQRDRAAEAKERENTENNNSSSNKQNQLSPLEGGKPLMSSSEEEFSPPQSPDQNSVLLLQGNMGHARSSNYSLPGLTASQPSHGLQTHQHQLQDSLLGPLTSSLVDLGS
#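 AlphaScreen luminescence read after one hour at 37 °C in darkness. Pin-transferred compounds met GST-Six1 and His-Eya2 protein (5X stock 250 nM/500 nM) plus glutathione donor and Ni-chelate acceptor beads (5X, 50 ug/mL).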
# TRPV1 PAM = enhances activation of the human vanilloid receptor TRPV1 | Q8NER1 | TRPV1-expressing cells, Fluo-8 calcium influx, capsaicin EC20 potentiation; host cell line not named in the record; control for the full effect not named in the record | potentiation, % at 8.33 µM | hit rate 0.02% among 320,000 | AID 540277; active means potentiation above 80%; inconclusive means 30% to 80%; inactive means below 30%; also: 0% is about no effect
#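 TRPV1-expressing cells were cultured overnight at 35.5C and loaded with Fluo-8 calcium dye for 40 to 90 min at room temperature. After a 10 s baseline, compound was added and calcium influx was read kinetically for 3 min (ex 480/em 520 nm).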
# TRPML1 inh = blocks the human TRPML1 channel; hit rate 0.02% among 390,000; activity change, negative = inhibition, % (no concentration beside the values); TRPML1-inducible cells, Ca2+ dye fluorescence, FDSS; active compounds read low; inhibition of EC80 agonist-evoked calcium signal; Q9GZU1; in the data active means activity change below about -50%; inconclusive means about -30% to -50%; inactive means above about -30%;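 also: stimulus is agonist 54-4 at its EC80 concentration; % is scaled to controls: 0 for no effect and ±100 for the full control effect; compound concentration not given in the record; the text of the record puts the active cut at -80%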
#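 Tet-induced TRPML1-DL cells loaded with Ca8 no-wash calcium dye were read kinetically on FDSS. Compound addition was followed by EC80 agonist 54-4 (4 uM final); inhibition was read over 110 s.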
# D2 potentiator = human D2 receptor positive allosteric modulation; P14416; DiscoveRx D2 beta-arrestin cells, luminescence, 90 min; 100% = 57 uM dopamine signal; potentiation, % (no concentration beside the values); hit rate 0.23% among 360,000; active = potentiation of 50% or more; inconclusive = 30% to 50%; inactive = 30% or less;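 also: compound concentration not given in the record; tested on top of an EC20 dose of dopamine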
#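 D2 cells co-treated with compound plus 50 nM dopamine (EC20) for 90 min at 37 deg C to detect potentiation. Beta-arrestin recruitment was read as enzyme-fragment luminescence after 1 h at ambient temperature. Full response was set by 57 uM dopamine.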
# * hit, by the source's call; u = inconclusive; x = no result given; & = joins results of further samples.
# Screens in order – TRPML1 ag, CtBP-E1A blk, Six1-Eya2 blk, TRPV1 PAM, TRPML1 inh, D2 potentiator
Cc1ccnc(NC(=O)/C=C/c2ccccc2Cl)c1
  2.7, -1, 12, -24, 42, -20
Cc1ccc(C(=O)NC(=S)N2CCN(c3ccc([N+](=O)[O-])cc3)CC2)cc1
  1.1, 6, -6, -8, -7, -16
O=C(NC12CC3CC(CC(C3)C1)C2)c1ccc([N+](=O)[O-])cc1
  1.5, -28, 14, -18, -8, 1
Cn1c(SCC(=O)Nc2ccc(Cl)cn2)nnc1C1CC1
  -0.3, 2, 4, 0, -3, -5
O=S1(=O)CCOC[C@H](CC2CCCCC2)N1Cc1cccc(C(F)(F)F)c1
  2.3&0.3, 1, -1, -11, 42, -15
COc1ccc(CCNCC2C(Oc3ccc(Cl)cc3)C(=O)N2c2ccccc2C)cc1OC (centres undefined)
  0.6, -10, -3, 4, 7, -18
COCCNc1nc(NC(C)C)nc2ccsc12
  4.2, 1, 1, x, x, -12
O=C(NCc1cccnc1)c1cc(C(=O)NCc2cccnc2)cc([N+](=O)[O-])c1
  0.1, 2, -2, x, -5, -3
CC(CC(=O)Nc1ccc2c(c1)c(=O)n(C)n2-c1ccccc1)c1ccccc1 (centres undefined)
  -0.8, 4, -3, x, x, -6
CCC1CCCCN1C(=O)c1ccc(OC)c(OC2CCN(C(C)=O)CC2)c1 (centres undefined)
  1.1, 10, -5, -4, -7, 5
OC(c1cc(F)cc(Cl)c1)c1ncc(-c2ccccc2C(F)(F)F)[nH]1 (centres undefined)
  0.3, -16, -9, x, x, -2
CCN(CCNC(=O)CN1CCN(Cc2ccc(Cl)cc2)C1=O)c1ccccc1
  -0.8, -18, -15, 4, 75, -7
CCOc1ccc(-c2cccc(NS(=O)(=O)c3ccccc3[N+](=O)[O-])c2)nn1
  2.0, -3, -6, 4, -16, -4
Cc1ccc(N2CCN(C(=O)c3nn(C)c4c3CS(=O)(=O)c3ccccc3-4)CC2C)cc1 (centres undefined)
  -1.0&-0.2, -9, -16, 3, 5&12, 4
COc1cccc(/C=N/c2nc3ccccc3n2C)c1O
  -0.5, 6, 2, -13, 4, 3
O=C(NCCN=C1NS(=O)(=O)c2ccccc21)c1ccccc1
  -0.1, 3, -2, 2, 8, -7
COc1ccc(CCNC2=C(Cl)C(=O)N(CCc3ccccc3)C2=O)cc1OC
  2.2, 33, 37, -3, -5, -1
Cc1nn(C(=O)c2cccc([N+](=O)[O-])c2)c(C)c1Sc1ccccc1
  2.8, -1, 4, 10, 19, -2
CSCC(C)N1CCC(n2nccc2NC(=O)CCc2ccccc2)CC1 (centres undefined)
  -0.5, 4, 0, -2, 11, -10
O=[N+]([O-])c1ccccc1/C=N/n1c(C2CCCCC2)n[nH]c1=S
  2.3, -15, -18, 8, -10, 8
Cc1n[nH]c(=O)nc1NCCc1ccccc1
  -0.6, 3, 1, -3, 17, -10
CNC(=S)N1CCN(c2ccc(Cl)c(Cl)c2)CC1
  0.0, -24, -19, 27, -10, -2
O=C1CSC(c2ccccn2)N1c1ccccc1F (centres undefined)
  -1.1, -1, 0, 2, 12, 6
O=C(Nc1ccccc1Cl)c1cc(C2CCCCN2C(=O)C2CCCCC2)on1 (centres undefined)
  -0.6, 11, 8, x, x, -6
CC1CCCC(C)N1C(=O)CSc1nnc(COc2cccc3cccnc23)o1 (centres undefined)
  0.0, 2, -8, -4, 14, 3
FC(F)(F)c1cc(CCN2CCNC[C@@H]2Cc2ccccc2)cc(C(F)(F)F)c1
  5.2, 0, -11, x, 8, -4
COc1ccc(N(C)S(=O)(=O)c2cccc(C(=O)OCC(=O)NCc3ccccc3OC)c2)cc1
  1.7, 5, -5, -13, 4, 13
O=C(CSc1nc2ccccc2c(=O)n1-c1ccccc1)NCC1CCCO1 (centres undefined)
  0.1, 2, -2, -3, -19, -7
Cc1c(/C=C2\NC(=O)NC2=O)c2ccccc2n1C
  0.2, -25, -19, -5, 1, -18
Cc1cc(N2CCCCC2)nc2ccc(NC(=O)CCC(=O)NCCC(C)C)cc12
  -1.1, -4, -1, 19, -5, -8
COc1ccc(OC)c(C2NC(=O)N(C)C(C)=C2C(=O)OCc2ccccc2)c1 (centres undefined)
  2.0, -17, -5, -4, 1, -1
O=C1CC(C(=O)O)C2(CCCC2)O1 (centres undefined)
  -0.4, 3, 5, x, 1, -7
Cc1ccc(C(=O)N/C(=C/c2ccc(-c3cccc([N+](=O)[O-])c3)o2)C(=O)NCCCN(C)C)cc1
  -0.4, -14, -20, 14, -1, -7
CCOC(=O)c1c(C2COc3ccccc3O2)csc1NC(=O)c1ccccc1 (centres undefined)
  0.1, 3, 1, 4, 22, -6
CC1=C(c2ccccc2)CCC1=O
  -0.8, 7, 3, x, 11, -13
CCCn1c(N)c(C(=O)CSc2nnc(Cc3cccs3)n2C2CC2)c(=O)[nH]c1=O
  -0.8, 3, 4, x, 0, 5
O=C(O)CCNS(=O)(=O)c1ccccc1C(F)(F)F
  -0.2, 3, -8, 5, -12, -6
Cc1ccc(Cl)cc1NC(=O)CN1C(=O)COc2ccc(S(=O)(=O)N3CCOCC3)cc21
  -0.2&2.8, 0, 4, 7, 10&-26, -11
CCC(C)NC(=O)c1ccc2nc(Cc3ccc(OC)cc3)oc2c1 (centres undefined)
  -0.1&-0.3, 4, 4, -1, 21&-7, 2
CC1(CCc2ccccc2)NC(=O)N(CC(=O)Nc2ccccc2)C1=O (centres undefined)
  -0.2, 7, -6, -6, 9, -4
Cc1ccc(-c2c[n+](CC(=O)c3ccc(Br)cc3)c3n2CCCCC3)cc1
  0.3, 0, -2, 26, -8, -13
O=C1Nc2ccccc2OC1CC(=O)N1CCOCC1 (centres undefined)
  0.3, 2, -5, 1, 4, -6
O=C(NCc1cccs1)C1CCC(CNS(=O)(=O)c2cccs2)CC1 (centres undefined)
  -1.0, 6, -7, -3, 8, -6
COc1ccc(C(=O)NCc2nnc(SCC(=O)Nc3ccccc3OC)o2)cc1
  -0.5, 1, -1, 29, -12, -3
Cc1nn(-c2ccccc2)c2c1C(O)CC(C)(C)C2 (centres undefined)
  x, -10, 0, -5, x, -11
CC(=O)NC12CC3CC(C1)CC(C(=O)N1CCN(S(=O)(=O)c4ccc(Cl)s4)CC1)(C3)C2
  -0.1, 1, 0, -20, 8, -2
Cc1ccc(/C(O)=C/c2nc3cc(C)ccc3oc2=O)cc1
  -0.5, 6, 8, -6, -7, 7
CCn1nnnc1SCC(=O)Nc1nc2ccc(OC)cc2s1
  -0.5, -4, -1, -4, 26, -14
C#CCn1c(-c2ccccc2)ccc(C#N)c1=O
  0.8, 0, 16, 11, 0, -1
COC1OC2COC(c3ccccc3)OC2C(OC(=O)c2ccccc2)C1OC(=O)c1ccccc1 (centres undefined)
  3.7, -13, -15, x, -14, -3
CCOc1ccc(NC(=O)C2CC(=O)N3CCCN=C3S2)cc1 (centres undefined)
  0.0, -5, 0, -6, 1, -7
Cc1cc(C)c(-c2nc3ccccc3s2)[nH]1
  -0.1, 1, -3, 16, -18, -12
CCNc1nnc(-c2ccccc2OC)s1
  -1.1, 19, 20, -10, 1, -28
O=C(Cc1ccc(Br)cc1)N1CCCC1
  0.2, 2, -5, 22, 2, 0
CC(=O)Nc1ccc(NC(=O)c2ccc(OCc3c(C)noc3C)cc2)cc1
  0.6, -8, 3, x, 6, 0
C1CNCCOCCNCCN1
  -0.3, u, u, 1, -12, -24
CC1=CC(C)C(C(=O)O)C(C(=O)N2CCN(C)CC2)C1 (centres undefined)
  -0.4, 4, 3, 2, 1, 0
C/C(=C/c1ccccc1)C(=O)N1CCN(c2ccccc2F)CC1
  0.8, 3, 3, -19, 6, -3
CCCc1c(-c2cccc(F)c2)ncn1Cc1ccccc1OC
  0.7, 1, -15, x, x, x
COC(=O)c1cc(=O)cc(C(=O)OC)o1
  0.2, -4, 5, u, -11, 3

# Copied from the list:
# `CCN(CCNC(=O)CN1CCN(Cc2ccc(Cl)cc2)C1=O)c1ccccc1` @ D2 potentiator: -7
# `CCC(C)NC(=O)c1ccc2nc(Cc3ccc(OC)cc3)oc2c1` (centres undefined) @ Six1-Eya2 blk: 4
# `COCCNc1nc(NC(C)C)nc2ccsc12` @ Six1-Eya2 blk: 1
# `CSCC(C)N1CCC(n2nccc2NC(=O)CCc2ccccc2)CC1` (centres undefined) @ CtBP-E1A blk: 4

# Part of the list above, reduced to TRPML1 inh:
SMILES	TRPML1 inh
CC1=CC(C)C(C(=O)O)C(C(=O)N2CCN(C)CC2)C1 (centres undefined)	1
O=C(Cc1ccc(Br)cc1)N1CCCC1	2

# Additional records.
# Screens in order – TRPML1 ag, CtBP-E1A blk, Six1-Eya2 blk, TRPV1 PAM, TRPML1 inh, D2 potentiator
Cc1cccc(C)c1NC(=O)CSc1nc2[nH]c(=O)cc(O)c2s1
  0.6, 0, -1, -6, 1, -6
COc1cccc(CNc2nc(NC(C)C)nc3ccsc23)c1OC
  -0.8, -8, -3, x, x, -15
CCOC(=O)C1=C(C)NC(=O)NC1c1ccc(N(CC)CC)cc1 (centres undefined)
  0.3, -4, -16, 2, 33, 2
CCc1ccc(CN(C)C(=O)C2CCC(=O)N(CCc3ccc(OC)cc3)C2)nc1 (centres undefined)
  -0.7, -8, 3, 1, 15, -9
CCOC(=O)c1c(Nc2ccccc2OCCOC)n[nH]c1C
  4.6, 2, -6, -7, 18, 5
Cc1cccc(OC(C)C(=O)OCC(=O)Nc2sccc2C(N)=O)c1 (centres undefined)
  0.8, 0, -3, -8, 11, 15
CCCCN(C(=S)Nc1ccc(F)cc1)c1c(N)n(CCC)c(=O)[nH]c1=O
  -0.2, -15, 5, -6, 0, 7
COc1ccc(CCC(C)NC2CCCCCCC2)cc1 (centres undefined)
  0.0, -6, 0, 0, 16, -14
CC(C)COc1ccccc1C(=O)NC(CO)C(=O)O (centres undefined)
  -0.5, 0, 20, 0, -9, -6
COC(=O)[C@@]1(C)[C@H]2C(=O)N(C)C(=O)[C@H]2[C@H]2CN(C)C(=NC3CCCCC3)N21
  0.7, 7, 14, x, -15, -5
O=C(C[C@H]1C(=O)N(Cc2ccccc2)C[C@@H]1c1ccc(Br)cc1)Nc1ccc(Br)cc1
  0.1, -3, -7, x, 8, -7

# Given with tabs: entries from further up
SMILES	TRPML1 ag	CtBP-E1A blk	Six1-Eya2 blk	TRPV1 PAM	TRPML1 inh	D2 potentiator
Cc1cccc(C)c1NC(=O)CSc1nc2[nH]c(=O)cc(O)c2s1	0.6	0	-1	-6	1	-6
COc1cccc(CNc2nc(NC(C)C)nc3ccsc23)c1OC	-0.8	-8	-3	x	x	-15
CCOC(=O)C1=C(C)NC(=O)NC1c1ccc(N(CC)CC)cc1 (centres undefined)	0.3	-4	-16	2	33	2
CCc1ccc(CN(C)C(=O)C2CCC(=O)N(CCc3ccc(OC)cc3)C2)nc1 (centres undefined)	-0.7	-8	3	1	15	-9
CCOC(=O)c1c(Nc2ccccc2OCCOC)n[nH]c1C	4.6	2	-6	-7	18	5
